Screening results deposited in PubChem BioAssay by Fisher Drug Discovery Resource Center.
NPYLR7 ag = activates Aedes aegypti NPYLR7 receptor | HEK293T NPYLR7/Galpha15, GCaMP6s calcium fluorescence | activation, % at 10 µM | 0.15% of 270,000 active | AID 1259423; in the data active means activation above about 40%;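 further: 0% = vehicle and 100% = reference agonist at the receptor; some compounds past the cut are filed as inactive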
NPYLR7 ag max-min = recorded beside NPYLR7 ag, whose call it bears; activation, %; measured here: Max-Min RFU normalised activation; some inactives read as strong as hits;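 span of the calcium signal over five minutes; 0% = vehicle and 100% = native peptide agonist; compound fluorescence can raise it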
Numbers without * were called inactive; & = joins results of further samples.

The first 2 entries (preview)
SMILES | NPYLR7 ag | NPYLR7 ag max-min
O=C(C=Cc1cccs1)Nc1ccc2c(c1)OCO2 | 2 | 0
COc1ccc(-c2cc3c(cn2)ncn3-c2cccc(C(F)(F)F)c2)cc1OC | 10 | 0

All compounds of this part, previewed entries included:
SMILES | NPYLR7 ag | NPYLR7 ag max-min
O=C(C=Cc1cccs1)Nc1ccc2c(c1)OCO2 | 2 | 0
COc1ccc(-c2cc3c(cn2)ncn3-c2cccc(C(F)(F)F)c2)cc1OC | 10 | 0
Cc1ccc(CN(Cc2nc3cc(C)ccc3o2)C(=O)c2ccc(F)cc2)cc1 | 5 | 4
COc1ccc(C)cc1NC(=O)CN1C(=O)NC(C)(c2ccco2)C1=O (configuration not stated) | -6 | -8
COc1ccc(-c2nc3scc(CCNS(=O)(=O)c4cccs4)n3n2)cc1 | -3 | 0
COc1ccc(Nc2nc(NCc3cccnc3)nc3[nH]ncc23)cc1 | 2 | 2
CC(C)c1ccc(OCC(=O)Nn2cnnc2)c(Br)c1 | 2 | 2
O=C(Nc1ccc2c3c(cccc13)CC2)c1ncn[nH]1 | 0 | -2
Cc1ccccc1NC(=O)NCCOc1ccc2nnc(-c3ccccc3)n2n1 | 5 | 4
Cc1cccc(Oc2cc(C(C)C)nc(SCc3cccc(C#N)c3)n2)c1C | 3 | 10
NC(Cc1ccc(Cl)cc1)C(=O)O (configuration not stated) | -7&7 | -12&-8
Cc1nc(C)c(C(=O)OC(C)C(=O)N2CCN(C(=O)c3ccco3)CC2)s1 (configuration not stated) | -6 | -3
c1cncc(-c2nc(NC3CCCCCCC3)c3ccccc3n2)c1 | 0 | -1
O=C(CC1CCCCC1)Nc1c2c(nn1-c1ccc([N+](=O)[O-])cc1)CSC2 | -1 | -4
CCOc1ccc(F)cc1NC(=O)C(=O)N1CCOC(C(N)=O)C1 (configuration not stated) | 5 | 4

Reprinted from above, 2 compounds:
SMILES | NPYLR7 ag | NPYLR7 ag max-min
O=C(CC1CCCCC1)Nc1c2c(nn1-c1ccc([N+](=O)[O-])cc1)CSC2 | -1 | -4
CCOc1ccc(F)cc1NC(=O)C(=O)N1CCOC(C(N)=O)C1 (configuration not stated) | 5 | 4

The listing continues:
SMILES | NPYLR7 ag | NPYLR7 ag max-min
Cc1cc(C(=O)NCCN2CCCC2)nc2cc(-c3ccccc3)nn12 | 12 | 20
Cc1cc([N+](=O)[O-])ccc1-c1ccc(C=C2C(=O)N(C)C(=O)N(C)C2=O)o1 | -20 | -22
O=C(NCc1cccnc1)C(Cc1ccccc1)NC(=O)C1CC(c2cccc(F)c2)=NO1 (configuration not stated) | 0 | 4
CCNC(=O)C(C1CCCC1)N1CCN(C(=O)CC(=O)OC)CC1 (configuration not stated) | 9 | 14
CCONC(=O)c1cc(-c2ccccc2OC)nc2cc(-c3ccc(Cl)cc3)nn12 | 18 | 20
O=C(NCc1ccncc1)c1coc(CN(Cc2cccc(C(F)(F)F)c2)Cc2ccccc2Cl)n1 | 11 | 14
CC(NC(C)c1ccc2ccccc2c1)C(=O)Nc1sccc1C#N (configuration not stated) | 1 | 1
CCn1c(=O)c(C(=O)Nc2ccccc2)c(O)c2ccccc21 | -2 | -8
CCc1ccc(NC(=O)CN2CN(c3ccccc3)C3(CCN(S(=O)(=O)c4ccc([N+](=O)[O-])cc4)CC3)C2=O)cc1 | -2 | 1
O=C(NCCCn1nc(-c2ccccc2)ccc1=O)Nc1cccc(C(F)(F)F)c1 | 0 | -3
COC(=O)c1ccc(NC(=O)c2cccn(OCc3ccccc3F)c2=O)cc1 | 3 | 3
Cc1ccc(Cl)c2sc(N(CCN3CCOCC3)C(=O)c3ccc(C#N)cc3)nc12 | 13 | 4
COc1ccc(S(=O)(=O)NC(=O)C2(C)CCN2C(=O)c2cccc3ccccc23)cc1OC (configuration not stated) | 7 | 3
CC(=O)c1c(C)[nH]c(C(=O)N(Cc2ccc(F)cc2)C2CC2)c1C | 9 | 5
CCN(CCN1C(=O)C(C)SC1c1cccc(C)c1)S(=O)(=O)c1cccc2cccnc12 (configuration not stated) | 0 | 13
Cc1ccc2nc(-c3cc(NC(=O)c4ccccc4C)ccc3Cl)oc2c1 | -3 | -4
COc1ccc(-c2cccc(-n3cncc3C(=O)N(C)CCc3c[nH]c4ccccc34)c2)cc1OC | 12 | 15
CCc1ccccc1NCC(=O)Nc1ccc(C)c(S(=O)(=O)N(C)C)c1 | 4 | 0
CN(C)CCCN1C(=O)C(O)=C(C(=O)c2cccs2)C1c1cccc(Br)c1 (configuration not stated) | 0 | -1
CC(C)CCN1CCCn2cccc2C1c1ccccc1F (configuration not stated) | 2 | 3
COC(=O)c1cc(Br)ccc1S(=O)(=O)N1CCNC(=O)C1 | 7 | 5
CSc1ncc(Br)c(=O)[nH]1 | 2 | 5
CN(CCCNC(=O)C1CC1(c1ccccc1)c1ccccc1)c1ccccc1 (configuration not stated) | -8 | -13
O=C(c1nn(-c2ccc(C(F)(F)F)cc2)c(=O)n(Cc2ccc(F)cc2)c1=O)N1CCCC1 | 8 | 13
CCCn1c(C)cc(C(=O)CC#N)c1C | 11 | 10
O=C1NCCN2CCN(C(=O)CCc3ccc(-c4cccs4)o3)CC12 (configuration not stated) | -1 | -2
CC1(C(=O)NS(=O)(=O)c2cccc(C#N)c2)CCN1C(=O)Cc1ccc(Cl)cc1Cl (configuration not stated) | 6 | 1
COc1ccc(C)cc1NC(=O)C(=O)NCC1CCN(C(=O)c2ccccc2F)CC1 | -6 | -8
CN1CCN(c2ccc(F)cc2C(=O)N(C)Cc2ccsc2)CC1 | 2 | -2
Cc1cc(C)cc(NC(=O)c2ccccc2NS(=O)(=O)c2cccc(Cl)c2)c1 | 0 | 10
CC(N)(C(=O)O)c1ccc(-c2nn[nH]n2)cc1 (configuration not stated) | 4 | -6
COc1cc(C(=O)CSC2=NCCS2)cc(OC)c1OC | 8&1 | 8&-2
O=C(CCc1ccccc1)N(CCN1CCOCC1)Cc1nccn1Cc1cccc(Cl)c1 | -6 | 1
COCCSc1nnc(C(C)C)c2cnn(-c3ccc(F)cc3)c12 | -11 | -16
Cc1ccc(C2=NOC(CN(Cc3cccc(Cl)c3)C(=O)CC(C)(C)C)C2)cc1 (configuration not stated) | 25 | 21
OCc1csc(COc2ccc(CNC3CCCCC3)cc2)n1 | -1 | 2
Cc1cccc(-c2noc(Cn3cnc4sc5c(c4c3=O)CCNC5)n2)c1 | -3 | -7
CNC(=O)[C@@H]1C[C@H](N)CN1Cc1cc(OC)c(OC)cc1F | -4 | -10
O=C(CN1C(=O)[C@H](c2ccccc2)NC(=O)c2ccccc21)N[C@@H]1CCCC[C@H]1N1CCOCC1 | 4 | 13
O=C(NCCN1CCn2cc(OCc3ccccc3)c(=O)cc2C1=O)c1ccccc1F | 13 | 4
Cn1cnnc1SCc1nc(-c2ccc(Cl)cc2)no1 | -1 | 35
Cc1cc(C)n2c(=S)n(CN(C)Cc3cccc(Cl)c3)nc2n1 | 3 | -1
O=C(Nc1ccnn1C1CCN(Cc2cc3ccccc3s2)CC1)C1CCCC1 | 5&5 | 5&0
Cc1ccccc1-n1c(SCc2cccc(C(F)(F)F)c2)nnc1-c1ccco1 | 39 | 41
CC(C)CC1NC(=O)c2cnn(-c3ccccc3F)c21 (configuration not stated) | 14 | 6
O=C(CN1CCc2sccc2C1c1cccc(F)c1)N1CCN(C(=O)Nc2ccc(Cl)c(Cl)c2)CC1 (configuration not stated) | 6 | -1
CCN(CC)CCCn1c2c(c(SCC(=O)Nc3nc(C)cs3)nc1=O)CCC2 | 1 | 8
CC(C)c1ccc(C(C)CC(=O)N2CCS(=O)CC2)cc1 (configuration not stated) | 7 | 7
CC1(C)OC2OC(C(O)c3cc(O)c4c(c3O)C(=O)c3ccccc3C4=O)C(C)(O)C2O1 (configuration not stated) | 106* | 97*
O=C(Nc1n[nH]c(C2CCCCC2)n1)C1CCCCC1 | 0 | -1
Cc1cc(NC(=O)C(=O)Nc2ccc(N3CCOC(C)C3)cc2)no1 (configuration not stated) | 15 | 11
CCN(Cc1ccncc1)C(=O)c1cc(COc2c(C)cccc2C)on1 | 5 | 10
Cc1ccc(C2SCCN2C(=O)Nc2c(Cl)cccc2Cl)o1 (configuration not stated) | 11 | 13
CCCCC(=O)N1CCN(c2ncnc3c2nnn3-c2ccc(OCC)cc2)CC1 | -7 | -18
Cn1c(C2CCCN2C(=O)c2cn(-c3ccccc3)nn2)nc2ccccc21 (configuration not stated) | 8 | 9
c1ccc(-c2nc(SC(c3ccccc3)c3ccccc3)n[nH]2)cc1 | 6 | 4
COc1ccc(CC2CCN(C(=O)c3ccc(C(F)(F)F)c(F)c3)CC2)cc1 | 3 | 7
CCn1c(=O)c2c(nc3n(-c4ccc(Cl)cc4)c(C)c(C)n23)n(C)c1=O | 5 | 0
CCCNC(=O)C1(C)CCCN(Cc2ccccc2-c2ccccc2)C1 (configuration not stated) | 6 | 1
CCn1cc(C(CC(=O)N2CCN(c3ccccc3OC)CC2)c2cccc(Cl)c2)c2ccccc21 (configuration not stated) | 11 | 21
The list continues.
SMILES | NPYLR7 ag | NPYLR7 ag max-min
CCCCS(=O)(=O)N1CCN(C(=O)c2cc(-c3ccc(Cl)cc3)n(-c3cccc(F)c3)c2C)CC1 | -5 | 0
Cc1ccc(NC(=O)N(CC(=O)N(Cc2ccc3c(c2)OCO3)Cc2ccc(C)o2)CC2CCCO2)c(C)c1 (configuration not stated) | -3 | 3
O=S(=O)(O)c1cc[n+]([O-])cc1 | -10 | -16
O=C(Cc1noc(-c2cscn2)n1)NC1CCCCC1 | -9 | -9
Cc1cc(C)c(-c2n[nH]c(=S)o2)c(C)c1 | 5 | 4
O=C(CCC1CCCN(Cc2ccc(C3CCCCC3)s2)C1)N1CCOCC1 (configuration not stated) | 6 | 5
CCc1nc2c(OCCOc3ccccc3)cccn2c1N(C)C(=O)C1CC1 | -1 | -2
COc1cccc(NC(=S)N(C)Cc2ccccc2F)c1 | 12 | 7
Cn1cc(CCC(=O)N2CCC3(CCCN(CC4CCC4)C3=O)C2)cn1 (configuration not stated) | 3 | 3
Cc1nc(CSCC(=O)NC2CCC(C)CC2)cs1 (configuration not stated) | 1 | -2
Cn1cnc(S(N)(=O)=O)c1Cl | -4 | -6
COc1ncccc1C(=O)N1CCC(Cn2cc(-c3ccccc3)nn2)CC1 | 6 | 4
Cc1nnc(CN(C)C(C)C2CC2)o1 (configuration not stated) | 3 | 1
COc1cc(C=C(C#N)C#N)ccc1OC(=O)c1ccc(F)cc1 | -7 | -13
O=c1ccn(Cc2nc3c(s2)CCCc2ccccc2-3)c(=O)[nH]1 | 7&3 | 6&-2

Single entries from the list:
CCc1nc2c(OCCOc3ccccc3)cccn2c1N(C)C(=O)C1CC1 @ NPYLR7 ag max-min: -2
Cc1nc(CSCC(=O)NC2CCC(C)CC2)cs1 (configuration not stated) @ NPYLR7 ag: 1

Carrying on.
SMILES | NPYLR7 ag | NPYLR7 ag max-min
CC(C)(C)c1cc2nc(C(=O)N3CCC4(CC3)OCCO4)cc(-c3cccc(F)c3)n2n1 | 4 | 6
COc1cc(Cl)c(S(=O)(=O)OCC(F)(F)F)cc1Cl | 12 | 9
COc1cccc(COc2coc(CN3CCCN(S(=O)(=O)c4ccc(C(F)(F)F)cc4Cl)CC3)cc2=O)c1 | 31 | 35
CCCCc1nnc(-c2cc3ccccc3[nH]2)o1 | -3 | 0
CCOC(=O)c1ccc2c(c1)nc(SCc1ccc(Cl)cc1F)n2CCc1ccc(OC)cc1 | 2 | -4
O=C(O)c1cc(-c2ccccc2Cl)nn1-c1ccc(Cl)c(Cl)c1 | 13 | 19
O=C(CCC1CCCC1)Nc1c(-c2cccc(F)c2)nc2ccccn12 | -5 | 1
OC[C@H]1O[C@@H](n2cnc3c2NC=NC[C@H]3O)CC1O (some centres not stated) | 14 | -1
COc1nc(NC(C)=O)cc(=O)n1C | 6 | 9
Oc1cccc(CN(c2nccc(C(F)(F)F)n2)C2CC2)c1 | 7 | 6
Cn1ncc(Oc2ccc3c(c2)OCO3)c(Nc2ccc(C(=O)NCCc3ccccn3)cc2)c1=O | 3 | 17
COC(=O)c1ccccc1N(C)C(=O)COC(=O)C1CCC(=O)NC1 (configuration not stated) | 4 | 1
CNS(=O)(=O)c1ccc(C(=O)N2CCCC2c2ccc3c(c2)OCCO3)cc1 (configuration not stated) | 1 | -1
CN(Cc1nnc(-c2ccccc2)o1)C(=O)c1onc2ccccc12 | 8 | -1
Cc1ccc(NC(=O)CSc2nc(=O)n3ccc(C)cc3n2)cc1 | 1 | 0
O=C(COc1ccc(N2CCN(c3ccccn3)CC2)nn1)N1CCOc2ccccc2C1 | 0 | -5
CCN(CC)c1onc(-c2ccc(F)cc2)c1CN(CC1CC1)C(=O)c1ccc(Cl)cc1 | 7 | 9
CCn1ccc(C(=O)N(Cc2ccc(SC)cc2)C2CC2)n1 | 0 | 11
N#CC(=Cc1ccc(-c2ccccc2)cc1)c1ccccn1 | 0 | -4
O=C1CSC2=NCN(c3ccc(Cl)cc3)CN12 | -7 | -12
O=C(NCCn1nc(-c2ccc(F)cc2)ccc1=O)C1c2ccccc2Oc2ccccc21 | -2 | -3
CC(NC(=O)c1ccccc1NS(=O)(=O)c1cccc(Cl)c1)c1ccccc1 (configuration not stated) | 5 | 5
CC(=O)c1cc(CN2CCC(N3CCC(C(=O)NC4CC4)CC3)CC2)cs1 | 10 | 4
c1cc(-c2noc(CSc3nnnn3C3CC3)n2)cs1 | 8 | 13
Cc1ccc(C(=O)COc2ccc3oc(=O)cc(C)c3c2)cc1 | 15 | 11

One compound at a time (already shown). Order of screens: NPYLR7 ag	NPYLR7 ag max-min
CC(NC(=O)c1ccccc1NS(=O)(=O)c1cccc(Cl)c1)c1ccccc1 (configuration not stated) is listed with 5	5
O=C(NCCn1nc(-c2ccc(F)cc2)ccc1=O)C1c2ccccc2Oc2ccccc21 is listed with -2	-3
CCN(CC)c1onc(-c2ccc(F)cc2)c1CN(CC1CC1)C(=O)c1ccc(Cl)cc1 is listed with 7	9
N#CC(=Cc1ccc(-c2ccccc2)cc1)c1ccccn1 is listed with 0	-4

An excerpt; rates above refer to the full screens.
